# LASV entry inh – Lassa virus entry inhibition; Lassa virus pseudotype entry inhibition, cell reporter; control for the full effect not named in the record; Potency, µM (top dose mostly 37.9 µM), without a hit: at the highest dose activity change, negative = inhibition, usual class: inhibitors; 300,000 tested, 1.2% active; active means well fitted inhibition curve with a large enough effect; inconclusive means small, poorly fitted or top-dose-only effect, or effect the other way; inactive means flat fitted curve, though single readings scatter; tested in HEK293 cells; further: on the % scale 0 is the no-effect control and ±100 the full control effect; nearly all actives have a fitted effect of over 50% in size; luciferase read-out
# RE007 growth inh – less growth of the S. pombe RE007 Vpr strain; S. pombe RE007 Vpr strain, BacTiter-Glo ATP luminescence, 24 h; control for the full effect not named in the record; 360,000 tested, 0.21% active; Potency, µM (top dose mostly 92.2 µM), for the others: top-dose activity change, negative = less growth; active = well fitted falling curve with a large enough effect; inconclusive = small, poorly fitted or top-dose-only effect; inactive = no such curve, though single readings can be large or run the other way;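 further: on the % scale 0 is the no-effect control and ±100 the full control effect; nearly all actives have a fitted effect of over 50% in size; the assay follows cell death caused by Vpr and the record does not say whether a fall means rescue or toxicity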
#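 Fission yeast RE007 carrying one integrated HIV-1 vpr copy, seeded at OD 0.01 in PMG+AL medium with 23 nL pinned compound. Grown 24 h at 30 degrees; viability read by BacTiter-Glo luminescence after 5 min.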
# MARV entry inh – Marburg virus entry inhibition; Potency, µM (highest dose often 37.8 µM), without a hit: top-dose activity change, negative = inhibition, usual class: inhibitors; Marburg virus pseudotyped entry inhibition, cell reporter; control for the full effect not named in the record; about a third of the inactives were read at about 46 µM; 300,000 tested, 1.8% active; active = well fitted inhibition curve with a large enough effect; inconclusive = small, poorly fitted or top-dose-only effect, or effect the other way; inactive = flat fitted curve, though single readings scatter; tested in HEK293 cells; about a fifth of its hits are not listed in these tables; further: on the % scale 0 is the no-effect control and ±100 the full control effect; luciferase read-out
# Cruzain inh noDet – inhibitors of Trypanosoma cruzi cruzain without detergent | P25779 | purified cruzain, Z-FR-AMC fluorescence, no detergent | Potency, µM, inactives show max response, negative = inhibition, most hits filed as inhibitors | 200,000 tested, 2.3% active | AID 1476; active means well fitted curve in the direction sought with a large enough effect; inconclusive means small, poorly fitted or top-dose-only effect, or another doubt; inactive means no such curve, though single readings can be large; an effect the other way counts as inactive or inconclusive;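 further: plate controls were enzyme without inhibitor for no effect and buffer without enzyme for full effect; nearly all actives have a fitted effect of over 40% in size; top concentration of the series not given in the record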
# Target sequence (P25779 123-467 limits assumed): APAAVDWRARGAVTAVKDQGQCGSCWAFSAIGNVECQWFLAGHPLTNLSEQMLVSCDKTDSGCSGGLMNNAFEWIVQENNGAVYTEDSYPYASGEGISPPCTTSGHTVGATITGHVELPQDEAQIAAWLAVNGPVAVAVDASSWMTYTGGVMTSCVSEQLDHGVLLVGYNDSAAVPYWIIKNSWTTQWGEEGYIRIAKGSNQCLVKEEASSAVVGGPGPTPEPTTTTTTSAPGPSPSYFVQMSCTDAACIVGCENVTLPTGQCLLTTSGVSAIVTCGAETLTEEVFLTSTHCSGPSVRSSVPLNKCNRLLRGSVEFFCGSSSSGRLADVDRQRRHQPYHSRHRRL
#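 Detergent-free condition (0.00005% Triton X-100) in acetate buffer pH 5.5 with DTT. 1.5 nM enzyme and compound were pre-mixed 15 min, then 2 uM Z-FR-AMC substrate added; reaction progress from fluorescence change between first and third reads (60 s).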
# NS1 function inh – inhibitors of influenza NS1 protein function; S. cerevisiae slowed by influenza A NS1, growth recovery by OD600; Potency, µM (titrated, usually from 46.1 µM), without a hit: at the highest dose activity, positive = more growth; 270,000 tested, 0.4% active; AID 2326; further: actives are rising curves; nearly all actives have a fitted effect of over 50% in size
#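 A cell-based growth assay was used: compounds that relieve NS1-induced slow growth of budding yeast raise OD600. Assay medium was yeast nitrogen base with ammonium sulphate and -URA supplement, pH 6.0, with 2% galactose.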
# StopGo reporter – lowers the luciferase signal of an FMDV 2A StopGo reporter | human cells with a luciferase reporter of 2A StopGo recoding; control for the full effect not named in the record | Potency, µM (top dose mostly 57.9 µM), for inactives: top-dose signal change, negative = less light | 410,000 tested, 1.2% active | AID 1159524; active = well fitted falling curve with a large enough effect; inconclusive = small, poorly fitted or top-dose-only effect; inactive = no such curve, though single readings can be large or run the other way; tested in HEK293T cells; further: on the % scale 0 is the no-effect control and ±100 the full control effect; nearly all actives have a fitted effect of over 45% in size; luciferase light after 4 h
# Cruzain inh Det – inhibitors of Trypanosoma cruzi cruzain with detergent; 200,000 tested, 0.43% active; P25779; AID 1478; purified cruzain, Z-FR-AMC fluorescence, 0.01% Triton; Potency, µM, without a hit: max response, negative = inhibition, actives largely listed as inhibitors; active means well fitted curve in the direction sought with a large enough effect; inconclusive means small, poorly fitted or top-dose-only effect, or another doubt; inactive means no such curve, though single readings can be large; an effect the other way counts as inactive or inconclusive;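 further: plate controls were neutral wells for no effect and buffer without enzyme for full effect; nearly all actives have a fitted effect of over 40% in size; top concentration of the series not given in the record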
#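 Enzyme 1.5 nM, Z-FR-AMC 2 uM, NaOAc 100 mM pH 5.5, DTT 5 mM, Triton X-100 0.01%; 15 min RT compound preincubation; kinetic ex360/em450, 60 s delta.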
# SARS PLP yeast – SARS-CoV PLP inhibition in yeast; S. cerevisiae expressing SARS-CoV PLpro, growth rescue; control for the full effect not named in the record; 330,000 tested, 0.19% active; Potency, µM (series often up to 32.9 µM), for the others: at the highest dose activity, positive = growth rescue; further: 0% is about no effect; nearly all actives have a fitted effect of over 55% in size; growth read by luminescence after 48 h
# Active calls of the source: *; ? = inconclusive; / = not tested or not shown; & = joins results of further samples; [ ] = dose if it differs, or a comment. Unless noted, the call rests on the fitted dose curve; in most records, active means well fitted rising curve with a large enough effect; inconclusive means small, poorly fitted or top-dose-only effect; inactive means no such curve, though single readings can be large or run the other way. Potency means the concentration at half of the fitted maximal effect.
1	COc1ccc2oc(C(=O)OCC(=O)N(Cc3ccccc3)C(C)C)c(C)c2c1
2	CCOC(=O)c1c(NC(=O)/C=C/C(=O)O)sc(C)c1-c1ccc(C(C)(C)C)cc1
3	O=C1c2ccccc2NC(c2ccncc2)N1c1ccccn1 (centres undefined)
4	COc1cccc(NC(=O)Cn2c(=O)oc3cc(S(=O)(=O)N4CCCC4)ccc32)c1
5	C#Cc1ccc(CN2CCCC(C(=O)Nc3ccccc3Oc3cccnc3)C2)cc1 (centres undefined)
6	C/C(=N\Nc1ccc([N+](=O)[O-])cc1)c1ccc(O)cc1
7	CCOC(=O)c1c(NC(=O)c2ccco2)sc(C(=O)N2CCCC2)c1C
8	CCc1ccc(NC(=O)CSc2nc(=O)n3cc(C)ccc3n2)cc1

assay / compound	1	2	3	4	5	6	7	8
LASV entry inh	-7.5%	?	-3.4%	-14.3%	/	1.3%[46.1 µM]	-6.3%	-11.1%
RE007 growth inh	3.7%	?	34.9%	-20.0%	-9.3%	1.5%	6.6%	6.4%
MARV entry inh	9.0%	10µM*	0.1%	-13.1%[46.1 µM]	/	-3.0%[46.1 µM]	-12.3%	-13.9%
Cruzain inh noDet	/	/	3.7%	/	/	/	-1.6%	/
NS1 function inh	/	5.2%	-1.9%	0.8%	-16.1%	/	-11.6%	/
StopGo reporter	-3.6%	17.8µM*	-24.4%	?	-24.9%	1.4%	21.6%	-4.6%
Cruzain inh Det	/	/	-6.2%	/	/	/	0.2%	/
SARS PLP yeast	6.1%	-2.8%	-2.6%	-1.7%	0.5%	-20.3%	-8.8%	-0.9%

9	CCOC(=O)c1sc(=S)n(-c2ccccc2Cl)c1SC
10	COCCn1c(=O)[nH]c2cc(C(=O)NCCc3ccc(OC)c(OC)c3)ccc2c1=O
11	COc1ccc(OC)c(CN2CCCC(CCC(=O)N(C)CCc3ccccn3)C2)c1 (centres undefined)
12	CCNC(=O)C(=O)NCC1OCCCN1S(=O)(=O)c1ccc(F)cc1C (centres undefined)
13	COc1ccc2oc(C)c(C(=O)Cn3ccnc3)c2c1
14	CC(C)c1cc2c(c(O)c1O)[C@@]13CCCC(C)(C)C1CC2OC3=O (some centres undefined)
15	O=C(CC1SC(=Nc2ccc3c(c2)OCCO3)NC1=O)Nc1ccc(F)cc1F (centres undefined)
16	CCOC(=O)c1cc(OC(=O)c2cccc(F)c2)n(-c2ccccc2)n1

assay / compound	9	10	11	12	13	14	15	16
LASV entry inh	0.7%	-4.2%	10.4%	14.3%	8.9%	/	-0.8%	-16.3%[46.1 µM]
RE007 growth inh	-1.3%	-19.7%	-7.7%	-12.8%	7.3%	-10.7%	0.9%	/
MARV entry inh	2.0%	16.7%&16.7%	-8.2%	-3.8%	?	/	?	?
Cruzain inh noDet	-2.8%	7.4%	/	/	-7.9%	/	/	7.5%
NS1 function inh	-0.5%	10.8%	6.0%	3.6%	-11.3%	18.7%	-1.7%	/
StopGo reporter	/	2.7%	?	-8.3%	-23.8%	?	-15.0%	12.0%
Cruzain inh Det	0.1%	-2.4%	/	/	7.9%	/	/	-5.0%
SARS PLP yeast	-21.7%	8.5%	-0.5%	28.3%	3.0%	-4.7%	0.3%	/

17	Cn1c(COc2cccc3cccnc23)nnc1SCC(=O)O
18	CC(=O)O/N=C(\N)c1ccc(-c2csnn2)cc1
19	CCN(CC)c1ccc(-n2c(C)cc(C=O)c2C)cc1
20	COc1ccc(OC)c(-n2cc3c(=O)n(C)c(=O)n(C)c3c2)c1
21	COC(C[C@@H]1O[C@@H]1[C@@H](O)[C@@H](C)OCc1ccccc1)OC
22	COc1ccccc1NC(=O)CC(NCCN(C)C)C(=O)O (centres undefined)
23	COc1ccccc1C1CCN(C(=O)c2ccc(Cl)cc2)CC1
24	COc1cc(/C=C(/NC(=O)c2ccc(Cl)cc2Cl)C(=O)O)cc(OC)c1OC

assay / compound	17	18	19	20	21	22	23	24
LASV entry inh	-7.1%	8.4%	?	?	/	13.2%	?	3.1%
RE007 growth inh	-1.6%	8.2%	1.5%	8.4%	0.1%	16.7%	1.2%	3.6%
MARV entry inh	-1.5%	?	?	-40.4%	/	3.2%	-7.2%[46.1 µM]	2.9%
Cruzain inh noDet	/	/	-4.0%	-7.4%	/	-7.7%	/	-0.8%
NS1 function inh	0.3%	-2.5%	-34.7%	-8.9%	3.6%	0.1%	-63.0%	-2.3%
StopGo reporter	-7.0%	44.8%[activator]	?	-17.2%	-3.1%	17.2%	-7.1%	-8.2%
Cruzain inh Det	/	/	1.5%	0.3%	/	3.0%	/	-5.3%
SARS PLP yeast	1.0%	-1.4%	-4.4%	1.5%	6.4%	4.2%	-10.9%	1.7%

25	Cc1ccc(N/N=C2/CCCNC2=O)cc1
26	Cn1c(=O)c2sccc2n(Cc2cccc(Br)c2)c1=O
27	CN(C)C(=O)CSc1nnc(Cc2ccccc2)n1Cc1ccco1
28	CN(NC(=O)c1ccc(Cl)cc1)c1cccc(Cl)n1
29	Cc1ccc(CN2CCN(C3CCN(C(=O)OC(C)(C)C)CC3)C(=O)C2=O)cc1
30	COc1cc([N+](=O)[O-])c(OC)cc1SCc1n[nH]c(=S)n1-c1ccc(C)cc1
31	Cc1ccc(OCc2nnc(SCc3nc4ccccc4[nH]3)n2Cc2ccco2)cc1
32	O=C1C=C(NCc2ccncc2)CC(c2ccccc2)C1 (centres undefined)
33	CCCNC(=O)c1ccccc1NC(=O)CN(c1ccccc1)S(=O)(=O)N(C)C
34	CCN(CC)c1cc(C)c2cc(NC(=O)CNC(C)=O)ccc2n1

assay / compound	25	26	27	28	29	30	31	32	33	34
LASV entry inh	-3.1%	-4.3%[46.1 µM]	-2.9%	13.4%	-26.7%[46.1 µM]	-19.4%	?	-2.7%	-23.3%	-0.4%
RE007 growth inh	8.3%	10.0%	8.9%	20.4%	/	-2.6%	24.7%	3.3%	-7.7%	-15.8%
MARV entry inh	4.8%	?	4.3%	1.0%	/	-8.8%	?	-5.6%	6.1%[46.1 µM]	0.6%
Cruzain inh noDet	-1.5%	/	-0.8%	-1.0%	14.9%	/	-17.0%	13.6%	/	2.7%
NS1 function inh	1.7%	-0.1%	0.2%	1.0%	/	-4.3%	-94.2%	13.1%	-1.2%	?
StopGo reporter	17.1%	-29.5%	1.3%	13.1%	-8.1%	-10.4%	?	-14.6%	4.6%	5.5%
Cruzain inh Det	-2.0%	/	-0.5%	1.2%	0.4%	/	-10.3%	1.1%	/	-0.4%
SARS PLP yeast	1.0%	-6.5%	-10.2%	1.2%	/	2.8%	-4.1%	1.0%	-1.7%	0.0%

# Bioassay records: PubChem, National Center for Advancing Translational Sciences (NCATS)
